Compound activity: PubChem BioAssay, National Center for Advancing Translational Sciences (NCATS)
HPGD inh = HPGD (human) dehydrogenase inhibition | P15428 | purified HPGD, NADH fluorescence kinetic, PGE2 substrate | Potency, µM, for the others: at the highest dose activity change, negative = inhibition, most hits filed as inhibitors | actives 4.3% (n = 150,000); active = well fitted inhibition curve with a large enough effect (not every such curve was filed as active); inconclusive = small, poorly fitted or top-dose-only effect, or another doubt; inactive = no such curve, though single readings can be large or run the other way;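 further: top concentration of the series not given in the record; plate controls included wells without enzyme; inactives centre near -10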
Target sequence (P15428 whole entry, looked up): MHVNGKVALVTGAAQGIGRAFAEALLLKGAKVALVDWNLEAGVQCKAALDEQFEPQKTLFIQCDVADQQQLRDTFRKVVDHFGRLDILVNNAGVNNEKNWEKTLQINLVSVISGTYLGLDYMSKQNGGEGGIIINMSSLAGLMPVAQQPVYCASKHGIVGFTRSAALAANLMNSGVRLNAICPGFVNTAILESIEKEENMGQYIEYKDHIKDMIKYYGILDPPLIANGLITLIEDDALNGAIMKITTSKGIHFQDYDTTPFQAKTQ
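20 nM HPGD preincubated 15 min at room temperature with compound in 50 mM Tris-HCl pH 8, 0.01% Tween 20. Started with 1 mM NAD+ and 30 uM prostaglandin E2; NADH fluorescence (360/450 nm) read 5 times over 30-s intervals, last minus first.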
Starred values were filed as active, the others as inactive; ? = inconclusive. On the % scale 0 is the no-effect control and ±100 the full control effect; potency means the concentration at half of the fitted maximal effect. An excerpt; rates above refer to the full screens.

| nr | HPGD inh | Compound |
| --- | --- | --- |
| 1 | -1.2% | CC(=O)N1CCC2(CCCN(Cc3ccccc3)C2)CC1 |
| 2 | ? | CC(/C=N/NC(=O)c1ccc2nc(C)[nH]c2c1)=C\c1ccccc1 |
| 3 | 7.94µM* | CCOC(=O)/C(=C\c1cccc(O)c1)c1nc2sc(C)c(C)c2c(=O)[nH]1 |
| 4 | -12.3% | CCC1Nc2ccccc2-c2nnc(SC)nc2O1 (stereo unspecified) |
| 5 | -15.6% | O=C(NCC1CCCO1)Nc1ccccc1 (stereo unspecified) |
| 6 | 4.8% | CS(=O)(=O)N1CCCC(C(=O)NCc2ccc(F)cc2)C1 (stereo unspecified) |
| 7 | 1.7% | Nc1ccc(C23CC4CC(CC(O)(C4)C2)C3)cc1 |
| 8 | -11.3% | CSc1nnc2c(n1)OC(c1ccsc1)N(C(C)=O)c1ccccc1-2 (stereo unspecified) |
| 9 | -1.2% | COc1ccccc1-c1noc(-c2ccccc2C(=O)Nc2cccnc2)n1 |
| 10 | -23.5% | Cc1ccccc1NC(=O)c1onc2c1CCCC2 |

A run of entries from further up:
| nr | HPGD inh | Compound |
| --- | --- | --- |
| 1 | -1.2% | CC(=O)N1CCC2(CCCN(Cc3ccccc3)C2)CC1 |
| 2 | ? | CC(/C=N/NC(=O)c1ccc2nc(C)[nH]c2c1)=C\c1ccccc1 |
| 3 | 7.94µM* | CCOC(=O)/C(=C\c1cccc(O)c1)c1nc2sc(C)c(C)c2c(=O)[nH]1 |
| 4 | -12.3% | CCC1Nc2ccccc2-c2nnc(SC)nc2O1 (stereo unspecified) |

Continued:
| nr | HPGD inh | Compound |
| --- | --- | --- |
| 11 | -8.5% | Brc1ccc(-c2csc(-c3ccncc3)n2)cc1 |
| 12 | -10.6% | COCCn1c(=O)c(CCc2ccccc2)nc2cnc(Nc3cccc(OC)c3)nc21 |
| 13 | -1.0% | O=C(O)c1ccc(OCC(O)Cn2cnc3ccccc32)cc1 (stereo unspecified) |
| 14 | ? | CC(=O)Nc1c(-c2ccc(F)cc2)nc2ccccn12 |
| 15 | ? | COc1cccc(/C=C/C(=O)OCC(=O)Nc2ccccc2Sc2ccccc2)c1 |
| 16 | -22.5% | CCn1c(=O)cc(OCC(=O)Nc2ccc3c(c2)OCCO3)c2ccccc21 |
| 17 | -1.7% | Cc1ccc(NS(=O)(=O)c2cc(C(=O)NCc3ccccn3)ccc2Cl)cc1C |
| 18 | 25.1µM* | N#Cc1c(NC(=S)NC(=O)c2ccccc2)sc2c1CCCC2 |
| 19 | -1.7% | c1ccc2c(c1)-c1nc3ccccc3cc1[C@H]2N1CCOCC1 |
| 20 | -2.1% | CCC(C)c1ccccc1NC(=O)C1CCCO1 (stereo unspecified) |

Three entries already listed, sorted by SMILES length, ascending.
| nr | HPGD inh | Compound |
| --- | --- | --- |
| 11 | -8.5% | Brc1ccc(-c2csc(-c3ccncc3)n2)cc1 |
| 14 | ? | CC(=O)Nc1c(-c2ccc(F)cc2)nc2ccccn12 |
| 17 | -1.7% | Cc1ccc(NS(=O)(=O)c2cc(C(=O)NCc3ccccn3)ccc2Cl)cc1C |

Continued:
| nr | HPGD inh | Compound |
| --- | --- | --- |
| 21 | ? | O=C(Nc1ccccc1)c1ccc(N2CCN(c3ccccc3)CC2)c(S(=O)(=O)N2CCOCC2)c1 |
| 22 | -20.7% | COc1cccc(SCc2noc(C(=O)NC(C)C)c2C(=O)O)c1 |
| 23 | -12.1% | CCOC(=O)N1CCN(C(=O)CCCn2c(=O)[nH]c3ccccc3c2=O)CC1 |
| 24 | -13.0% | Cc1cc2cc(CN(Cc3ccco3)C(=S)NCC3CCCO3)c(=O)[nH]c2cc1C (stereo unspecified) |
| 25 | -5.5% | CCn1c(CC(=O)Nc2ccccc2)nnc1SCC(=O)Nc1ccccc1C(=O)OC |
| 26 | ? | Cc1cc(N2CCCCCC2)nc(-c2ccccc2O)n1 |
| 27 | -12.9% | COc1ccc(NC(=O)Cc2coc3ccc4ccccc4c23)cc1S(=O)(=O)N1CCOCC1 |
| 28 | 20µM* | O=C(c1ccc(Cl)cc1Cl)N1CCC(c2nc3c(nnn3Cc3ccco3)c(=O)[nH]2)CC1 |
| 29 | 0.5% | O=C(CCn1nc(-c2ccccc2)ccc1=O)N1CCOCC1 |
| 30 | -5.3% | CCNc1cc(O)ccc1C |

4 entries from above, bar-delimited:
No. | Structure | HPGD inh
29 | O=C(CCn1nc(-c2ccccc2)ccc1=O)N1CCOCC1 | 0.5%
25 | CCn1c(CC(=O)Nc2ccccc2)nnc1SCC(=O)Nc1ccccc1C(=O)OC | -5.5%
30 | CCNc1cc(O)ccc1C | -5.3%
21 | O=C(Nc1ccccc1)c1ccc(N2CCN(c3ccccc3)CC2)c(S(=O)(=O)N2CCOCC2)c1 | ?

(listing goes on)
| nr | HPGD inh | Compound |
| --- | --- | --- |
| 31 | -6.4% | COc1ccc(CNC(=O)C2CC(C)=C(C)CC2C(=O)O)cc1 (stereo unspecified) |
| 32 | 12.6µM* | CC1CCN(C(=O)c2cc(F)c(F)cc2Cl)CC1 |
| 33 | -14.7% | CC(C)CSc1nc2c(=O)[nH][nH]c(=O)c2n1Cc1ccccc1 |
| 34 | -9.4% | O=C(COc1ccccc1)N1CCN=C1SCc1cccnc1 |
| 35 | -5.5% | COc1ccc(Cn2nc(C)cc2C)cc1OC |
| 36 | -3.6% | CCCC(=O)NC(C)c1nc2ccccc2[nH]1 (stereo unspecified) |
| 37 | -1.3% | CN1CCN(c2nc3c(c(=O)[nH]c(=O)n3C)n2CC(N)=O)CC1 |
| 38 | -4.8% | CCCCCCCC/C=C\C/C=C\C/C=C\CCCC(=O)NCCO |
| 39 | ? | O=C(c1ccc(-n2cccc2)cc1)N1CCOCC1 |
| 40 | ? | COc1cc(NC(=O)c2cc(-c3ccco3)on2)c(OC)cc1Cl |

Exported as labelled records: part of the list above
[34] O=C(COc1ccccc1)N1CCN=C1SCc1cccnc1
  HPGD inh = -9.4%
[37] CN1CCN(c2nc3c(c(=O)[nH]c(=O)n3C)n2CC(N)=O)CC1
  HPGD inh = -1.3%
[39] O=C(c1ccc(-n2cccc2)cc1)N1CCOCC1
  HPGD inh = ?
[31] COc1ccc(CNC(=O)C2CC(C)=C(C)CC2C(=O)O)cc1 (stereo unspecified)
  HPGD inh = -6.4%

New compounds follow:
| nr | HPGD inh | Compound |
| --- | --- | --- |
| 41 | -11.7% | COc1ccc(C(=O)CSc2nnc(NC(=O)C3CC(=O)N(c4ccccc4C)C3)s2)cc1 (stereo unspecified) |
| 42 | -1.6% | Cc1nc2ccc(S(=O)(=O)NC(C(=O)Nc3nccs3)C(C)C)cc2s1 (stereo unspecified) |
| 43 | -14.5% | Cc1ccccc1NC(=O)c1c(O)c2cccc3c2n(c1=O)CC3 |
| 44 | -3.9% | COc1ccccc1N1CCN(C(=O)CCc2ccc(S(=O)(=O)NCC(C)C)cc2)CC1 |
| 45 | -6.7% | CCCCCCCCCCCCCCCCOCC(CO)OC(C)=O (stereo unspecified) |
| 46 | 0.2% | O=C(CSCCO)Nc1cc(C(F)(F)F)ccc1Cl |
| 47 | -1.9% | COc1cccc(C2CC(=O)Nc3c2c(=O)n(C)c(=O)n3C)c1OC (stereo unspecified) |
| 48 | 28.2µM* | O=C(c1ccc([N+](=O)[O-])cc1)N1CCc2ccccc2C1 |
| 49 | -12.8% | O=C(Cc1ccc([N+](=O)[O-])cc1)N1CCN=C1SCc1ccccc1 |
| 50 | 5.6% | CC(c1ccccc1)N1C(=O)NC(NC(=O)c2cccnc2)(C(F)(F)F)C1=O (stereo unspecified) |
| 51 | -8.9% | CC(C)n1c(O)c(N=NC(=O)c2ccccc2NS(=O)(=O)c2cccs2)c2ccccc21 |
| 52 | -17.6% | Cc1ccc(NC(=O)CCC(=O)OCC(F)(F)C(F)F)cc1 |
| 53 | -12.0% | Cc1ccc(C(=O)NCC2CCCO2)o1 (stereo unspecified) |
| 54 | -19.1% | O=C(NN=C1CCCC1)c1cc(-c2ccccc2)n[nH]1 |
| 55 | ? | Cc1ccc(S(=O)(=O)N2CCN(C)CC2)c(C)c1N(C)S(=O)(=O)c1ccc(Cl)cc1 |
| 56 | -7.5% | CC1(C)C(=O)OC(c2cccs2)C2(CCCCC2)C1=O (stereo unspecified) |
| 57 | -0.7% | CCOC(=O)C1C(c2cccc(Cl)c2Cl)NC(=O)NC1(O)C(F)(F)F (stereo unspecified) |
| 58 | -19.9% | C/C(N)=C(/C#N)C(=O)CSc1nc2ccccc2c(=O)n1-c1ccc(C)c(Cl)c1 |
| 59 | -4.4% | COc1ccc2c3c1O[C@H]1C[C@H](O)C=C[C@@]31CCN(C)C2 |
| 60 | -8.3% | Cn1nnnc1SCc1ccc(F)cc1 |
